Assay outcomes (PubChem)
Tau fibril FP: tau fibrillization inhibition (FP). AID 1468. actives 0.39% (n = 280,000). Potency, µM (titrated, usually from 57.7 µM), inactives show top-dose activity, negative = inhibition, actives largely listed as inhibitors. K18 P301L tau heparin fibrillization, Alexa594 FP, 6 h. P10636; note: % is set by controls: 0 for no effect and ±100 for the full control effect; nearly all actives have a fitted effect of over 55% in size
Target sequence (P10636 561-689 P618L limits assumed): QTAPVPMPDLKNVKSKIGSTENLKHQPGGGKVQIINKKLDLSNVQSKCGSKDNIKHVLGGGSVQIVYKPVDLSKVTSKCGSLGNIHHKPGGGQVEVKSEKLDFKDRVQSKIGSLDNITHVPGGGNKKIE
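Heparin (20 uM) drove fibril formation of recombinant tau K18 P301L, 15 uM unlabeled with 0.24 uM Alexa 594 label, for 6 hr at 37 C in 100 mM sodium acetate pH 7. Fluorescence polarization (555/632 nm) read 1 hr after 30 uM ThT.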
SMN2 splice up: increases expression of the SMN2 splice variant | HEK293 SMN2-luciferase splicing reporter, luminescence, 30-36 h | Potency, µM (top dose mostly 46.1 µM), without a hit: at the highest dose activity change, positive = activation, hits mostly activators | actives 2.8% (n = 210,000) | AID 1458; note: % of control where 0% means no effect; nearly all actives have a fitted effect of over 55% in size
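HEK293 cells carry an SMN2 […]–luciferase reporter in which exon 7 inclusion puts luciferase in frame. Cells were plated 10-12 h before compound addition, then incubated 30-36 h at 37C. ONE-Glo luminescence was read; sodium butyrate at 4.5 mM final served as control.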
Tau fluor cs: counter-screen for tau fibril formation inhibitors; tau K18 P301L Alexa594 fluorescence, heparin fibrillization; Potency, µM (highest dose often 57.7 µM), for inactives: at the highest dose activity change, negative = decrease; actives 0.93% (n = 280,000); note: % is set by controls: 0 for no effect and ±100 for the full control effect; nearly all actives have a fitted effect of over 55% in size
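Human tau K18 P301L (15 uM unlabeled, 0.24 uM Alexa 594-labeled) in 100 mM sodium acetate pH 7 with 20 uM heparin, 6 hr at 37 C. ThT 30 uM added, 1 hr ambient; Alexa 594 FP and total fluorescence read at 555/632 nm.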
Tau fibril ThT: blocks human tau fibril formation measured by thioflavin T; P10636; recombinant tau K18 P301L (four-repeat tau fragment), heparin-induced fibrillization, ThT fluorescence; Potency, µM (highest dose often 57.4 µM), without a hit: at the top dose activity, negative = inhibition, most hits filed as inhibitors; actives 2.1% (n = 270,000); note: % is set by controls: 0 for no effect and ±100 for the full control effect; nearly all actives have a fitted effect of over 55% in size
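K18 P301L tau (15 uM + 0.24 uM Alexa 594-tagged), heparin 20 uM, NaOAc pH 7, 6 h 37 C; ThT 30 uM, 1 h RT, ex 450/em 510 nm.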
HTT ATP protect: Huntington cell model cytoprotection by ATP luminescence; PC12 HTT-Q103 induced, cytoprotection, ATP luminescence, 40 h; Potency, µM (series often up to 56.4 µM), inactives show cytoprotection (ATP increase), usual class: activators; actives 0.14% (n = 230,000); AID 1471;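 note: % of control where 0% means no effect; nearly all actives have a fitted effect of over 45% in size; toxic huntingtin expression switched on by the ecdysone agonist tebufenozide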
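Cells were plated at 1500 per well in phenol red-free DMEM with 5% equine and 5% calf serum. Tebufenozide (100 nM final) and compounds were added, then ATPlite reagent, and luminescence was read.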
HttQ103 aggreg: reduces HttQ103-GFP aggregates in PC12 cells | PC12 HttQ103-GFP aggregates, Acumen cytometry, 40 h | Potency, µM (doses to about 46.1 µM), inactives show at the top dose activity change, negative = inhibition, most hits filed as inhibitors | actives 1.1% (n = 220,000) | AID 1688; note: % is set by controls: 0 for no effect and ±100 for the full control effect; nearly all actives have a fitted effect of over 60% in size
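Using laser scanning cytometry, GFP-positive aggregates were counted after lysis of PC12 cells induced with 100 nM tebufenozide to express HTT exon 1 Q103–GFP. Compounds were tested in titration.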
KDM4E inh: JMJD2E (human) inhibition | B2RXH2 | JMJD2E catalytic domain, FDH-coupled NADH fluorescence (FDH is formaldehyde dehydrogenase) | Potency, µM (series often up to 57.1 µM), inactives show top-dose activity change, negative = inhibition, actives largely listed as inhibitors | actives 1.6% (n = 230,000); active = well fitted inhibition curve with a large enough effect, not every such curve was filed as active; inconclusive = small, poorly fitted or top-dose-only effect, or another doubt; inactive = no such curve, though single readings can be large or run the other way;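 note: 0% = wells with enzyme and -100% = buffer wells without enzyme; nearly all actives have a fitted effect of over 50% in size; many of its hits are not listed in these tables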
Target sequence (B2RXH2 1-337 limits assumed): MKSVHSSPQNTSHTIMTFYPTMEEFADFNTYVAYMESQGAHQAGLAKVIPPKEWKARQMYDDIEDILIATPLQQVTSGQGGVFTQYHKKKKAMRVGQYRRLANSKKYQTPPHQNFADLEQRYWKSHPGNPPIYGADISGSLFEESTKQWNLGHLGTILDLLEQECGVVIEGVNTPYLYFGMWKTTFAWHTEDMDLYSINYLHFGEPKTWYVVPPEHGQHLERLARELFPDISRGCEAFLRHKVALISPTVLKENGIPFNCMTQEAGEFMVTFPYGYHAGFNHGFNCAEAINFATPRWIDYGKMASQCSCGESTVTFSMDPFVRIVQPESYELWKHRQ
The depositor's hits bear a star; u = inconclusive; x = not tested or not shown; & = joins results of further samples; [ ] = another dose, or the depositor's remark. Unless noted, calls come from the whole dose curve; as a rule, active = well fitted curve in the direction sought with a large enough effect; inconclusive = small, poorly fitted or top-dose-only effect, or another doubt; inactive = no such curve, though single readings can be large; an effect the other way counts as inactive or inconclusive. Potency is the fitted concentration of half-maximal effect. The list is partial; rates above refer to the full screens.

SMILES	Tau fibril FP	SMN2 splice up	Tau fluor cs	Tau fibril ThT	HTT ATP protect	HttQ103 aggreg	KDM4E inh
COc1ccc(S(=O)(=O)N[C@@H](Cc2ccc(Cl)cc2)C(=O)N2CC[C@@]3(O)CCCC[C@H]3C2)cc1	5%	-16%	-3%	0%	-15%	u	-9%
O=C1CC(C(=O)N(CC2CCCO2)C(C(=O)NC2CCCCC2)c2ccncc2)CS1 (configuration not stated)	3%	-4%	4%	3%	-28%[10 µM]	u	-4%
CCOC(=O)Cn1c(=NC(=O)CN2C(=O)CCC2=O)sc2cc(S(N)(=O)=O)ccc21	-5%	-3%	-2%	0%	-7%[10 µM]	11%	u
CC(=O)Nc1ccc(NC(=S)NC(=O)/C=C/c2ccccc2)cc1	-4%	8%	-4%	-12%	-23%	4%	-22%
CC(C)Oc1ccccc1C(=O)NC(CO)C(=O)O (configuration not stated)	3%	5%	9%	1%	x	x	-20%
CCOC(=O)Cc1csc(NC(=O)C(C)(C)CC)n1	-7%	7%	-15%	-11%	-4%[10 µM]	9%	6%
N/C(=N\c1nc2ccccc2o1)NC(=O)c1ccccc1	0%	13%	-14%	-20%	-15%	-5%[9.22 µM]	-2%
CC(=O)Oc1ccc(NC(=O)CCC2CCCCC2)c(C(=O)O)c1	-2%	12%	1%	-2%	4%[10 µM]	5%	u
Cc1nc2ccccc2nc(C)c1=NOCc1ccccc1Cl	u	-12%	-16%	-14%	-6%[10 µM]	2%	-7%
CC(=O)Nc1cccc(Oc2ncnc3scc(-c4ccccc4)c23)c1	-6%	-15%	-20%	4%	17%[1.9 µM]	-13%	6%
CCOc1ccccc1/C=C(/C#N)C(N)=O	-1%	x	-15%	-11%	12%[10 µM]	3%[9.22 µM]	u
CCC(C)(C)NC(=O)C(c1cccn1C)N(C(=O)Cn1nnc2ccccc21)c1ccccc1OC (configuration not stated)	5%	-18%	4%	-6%	10%[10 µM]	21%	5%
O=[N+]([O-])c1cccc(OCc2cn3cccnc3n2)c1	-14%	-16%	-11%	u	-35%	1%	-3%
Cc1nnsc1C(=O)N/N=C/c1c(F)cccc1Cl	-3%	2%	-4%	2%	-10%	10%	1%
O=C(c1nc2ccc(Cl)cn2c1CNCC[C@@H]1C[C@@H]2C=C[C@H]1C2)N1CCCCCCC1	-2%	1%	-8%	-9%	-19%[10 µM]	-4%[9.22 µM]	0%
c1ccc(N2CCN(Cc3cnc(N4CCOCC4)s3)CC2)cc1	-15%	-50%[inhibitor]	-3%	-7%	-6%[10 µM]	-7%	1%
CC1(C)CC(=O)c2cc(C(=O)O)c(=O)n(-c3ccccc3)c2C1	3%	5%	-1%	-5%	7%	6%	-3%
CC#CCCCC(=O)Nc1cccc(C(=O)O)c1	-6%	u	3%	3%	6%	-8%	-7%
O=[N+]([O-])c1ccc(N2CCN(c3ccccc3O)CC2)c(Cl)c1	-4%	-16%	3%	5%	17%[10 µM]	18%	8%
CCOC(=O)c1c(CN2CCN(CCO)CC2)n(C)c2cc(Br)c(OC)cc12	-10%	0%	-13%	-13%	-36%	u	0%
Cc1cc(C)n(C(=O)C(C)n2nc([N+](=O)[O-])c(Br)c2C)n1 (configuration not stated)	4%	-7%	-4%	-3%	22%[10 µM]	10%	12%
CCCNc1nc2c(c(=O)[nH]c(=O)n2C)n1Cc1cccc(Br)c1	9%	13%	-16%	-3%	-14%	-1%	1%
CC(CNC(=O)C1CCCCC1)NC(=O)C1CCCCC1 (configuration not stated)	-4%	-7%	9%	10%	7%	1%	1%
Cc1ccccc1NC(=O)Cn1nc(-c2ccccc2)nc1-c1ccccc1	-4%	-3%	-2%	-7%	-28%	15%	10%
COc1cccc(C(=O)Oc2cccc(N3C(=O)C4C5CC(C(Br)C5Br)C4C3=O)c2)c1 (configuration not stated)	-7%	-2%	-16%	-2%	-6%	3%	4%
O=C1CCCC2=C1C(c1cccc(O)c1)C1=C(N2)c2ccccc2C1=O (configuration not stated)	2%	-6%	-20%	u	-42%[inhibitor]	14%	-15%
COc1ccc(C(=O)c2ccc(OC)c(OC)c2)cc1OC	-3%	-13%	-5%	-6%	-20%	-3%	6%
Nc1c(Cl)cnc(C(Cl)(Cl)Cl)c1Cl	7%	-3%	4%	4%	0%	0%	3%
COc1ccc(/C(N)=N/OC(=O)CN(C)S(=O)(=O)c2ccc(C)cc2)cc1	2%	x	-24%	-2%	-44%[inhibitor]	-64%	-4%
COc1cccc(/C=N/NC(=O)C[n+]2ccccc2)c1OC	1%	-6%	2%	0%	22%[10 µM]	-3%	2%
CCN1C2OC3OC4C(OC3OC2N(CC)S1(=O)=O)N(CC)S(=O)(=O)N4CC (configuration not stated)	-4%	x	-4%	-5%	-5%[10 µM]	-6%[9.22 µM]	7%
CCN1CCN(C(=O)c2ccc3c(c2)c(C)c(C)n3Cc2ccccc2)CC1	0%	-11%	-8%	-9%	-59%[inhibitor]	-17%	-5%
Cc1ccc(S(=O)(=O)Nc2nonc2C)cc1	-1%	7%	-2%	-1%	-2%	3%	0%
Cc1ccc2c(c1)nnn2C1CCN(C(=O)c2cccs2)CC1	5%	-12%	-3%	-6%	-1%	-9%	11%
CCOc1ccc(CN(C(=O)c2cc3ccccc3oc2=O)C2CC2)cc1	5%	-42%[inhibitor]	-4%	-7%	23%[10 µM]	-7%	-2%
Cn1c(C(=O)N2CCN(c3cccc(C(F)(F)F)c3)CC2)cc2sccc21	u	-17%	-15%	-19%	3%	u	0%

Compounds shown so far containing a COOH group (four):
SMILES	Tau fibril FP	SMN2 splice up	Tau fluor cs	Tau fibril ThT	HTT ATP protect	HttQ103 aggreg	KDM4E inh
CC(C)Oc1ccccc1C(=O)NC(CO)C(=O)O (configuration not stated)	3%	5%	9%	1%	x	x	-20%
CC(=O)Oc1ccc(NC(=O)CCC2CCCCC2)c(C(=O)O)c1	-2%	12%	1%	-2%	4%[10 µM]	5%	u
CC1(C)CC(=O)c2cc(C(=O)O)c(=O)n(-c3ccccc3)c2C1	3%	5%	-1%	-5%	7%	6%	-3%
CC#CCCCC(=O)Nc1cccc(C(=O)O)c1	-6%	u	3%	3%	6%	-8%	-7%

(list continues)
SMILES	Tau fibril FP	SMN2 splice up	Tau fluor cs	Tau fibril ThT	HTT ATP protect	HttQ103 aggreg	KDM4E inh
CCN(C(=O)COC(=O)c1cc(OC)c(OC)cc1[N+](=O)[O-])C1CCS(=O)(=O)C1 (configuration not stated)	-5%	5%	-5%	0%	-56%	-3%	-1%
O=C(NNC(=O)NC1CCCCC1)NC1CCCCC1	2%	10%	6%	9%	-43%	-2%[9.22 µM]	1%
CC(C)(C)c1cc(C(=O)O)c(CN2CCCCC2)o1	-4%	4%	3%	6%	-6%[10 µM]	-9%	5%
CC(C)C(N)C(=O)OCCOCn1cnc2c(=O)[nH]c(N)nc21 (configuration not stated)	2%	-3%	-1%	1%	-98%[inhibitor]	x	3%
O=C1CSC(=S)N1Cc1cccnc1	-11%	3%	-6%	32µM*	-4%	u	-9%
CC1CCCN(S(=O)(=O)c2ccc(N(C(=O)c3cnccn3)C(C(=O)NC3CCCCC3)c3cccs3)cc2)C1 (configuration not stated)	-2%	-1%[1.84 µM]	-16%	-19%	-3%[10 µM]	-16%	3%
COCC(=O)NC1CCN(S(=O)(=O)c2cccc(C(C)=O)c2)CC1	3%	4%	13%	7%	11%[10 µM]	-5%[9.22 µM]	6%
CCOc1ccc(CCNC(=O)Cn2ccc3ccccc3c2=O)cc1OCC	3%	6%	1%	-2%	-28%	18%	u
CCOC(=O)c1cn(-c2ccc(F)c(F)c2F)c2c(F)c(F)c(F)cc2c1=O	5%	-4%	-2%	-7%	3%	2%	-3%
CCNC(=O)NCCNC(=O)c1cc(OCC(F)(F)F)ccc1OCC(F)(F)F	4%	17%	0%	-4%	-15%	0%	-3%
O=C(O)CC(C(=O)N(c1ccccc1)c1ccccc1)N1CCOCC1 (configuration not stated)	-4%	-3%	-16%	-17%	-23%	15%	-21%
Cc1noc(C)c1S(=O)(=O)N1CCCC(C(=O)NCCC2=CCCCC2)C1 (configuration not stated)	-6%	-18%	-8%	-2%	-13%	-10%	3%
CCc1ccccc1NC(=O)C1CC(c2ccc(F)cc2)=NO1 (configuration not stated)	-1%	-18%	-10%	-6%	32%	11%	-2%
COc1ccc(C(=O)N2CCC3(CCN(CC(C)C)CC3)CC2)cc1	x	7%	x	x	21%	x	x
Cc1ccc(/C=N/Nc2nc(N3CCOCC3)nc(N3CCOCC3)n2)o1	-7%	-22%	-8%	-4%	23%	-1%	-10%
N/C(Cc1cccs1)=N\OC(=O)COc1ccccc1Cl	5%	-5%	-11%	-6%	-5%	-15%	-1%
Cc1cccc(NC(=O)CN2C(=O)N/C(=C/c3cc(C)n(C(C)C)c3C)C2=O)c1	-1%	-9%	u	u	-12%	-5%	u
Cc1nccn1CCCN1C(=O)OC2(CCCCC2)C1(C)O (configuration not stated)	-4%	0%	-2%	-3%	2%[10 µM]	8%	2%
CN(c1ccccc1)S(=O)(=O)c1ccc(C(=O)Nc2nnc(-c3ccco3)o2)cc1	5%	-87%[inhibitor]	-7%	-12%	-67%[inhibitor]	u	u
COc1cccc(-c2nnc(-c3ccc(C(F)(F)F)cc3)o2)c1OC	-5%	18µM*	-17%	-15%	-4%[10 µM]	-27%	-3%
Cc1ccc(C)c(N2CCN(C(=O)CCc3nc4ccccc4[nH]3)CC2)c1	6%	-1%	-10%	-11%	15%	-1%	4%
Cc1c(C(=O)C(=O)NCCC2=CCCCC2)c2ccccc2n1C	1%	-11%	-1%	1%	18%[10 µM]	-1%	-1%
COC(=O)[C@@]1(Cc2ccc(OC)cc2)[C@H]2c3cc(C(=O)N(C)C)[nH]c3C[C@H]2CN1C(=O)c1ccccc1	1%&11%	-18%&0%	-13%&0%	-7%&-8%	3%	-4%	-3%&-25%
Cc1ccc(Nc2cnn(C34CC5CC(CC(CC(=O)O)(C5)C3)C4)c(=O)c2Cl)c(Cl)c1	-4%	16%	-3%	-12%	-22%	7%	-4%
COc1ccc2c(c1)CC/C(=C\c1ccc(OC)c(Cn3nc(C)cc3C)c1)C2=O	-4%	-15%	-6%	-13%	4%[10 µM]	u	-1%
